# Source: PubChem BioAssay
# GALR2 agonist = GALR2 receptor agonists, primary screen, cell-based | activation, %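 (tested at 5 µM)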 | GALR2-expressing cells, agonist activation read-out | hit rate 0.48% among 140,000 | AID 803, 2007;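 active = above mean plus 3 SD of all compounds, about 5% in these data, not always enough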;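 note: 0% = vehicle buffer wells and 100% = reference agonist at full effect; tested in CHO reporter cells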
# Target sequence (O43603 whole entry, looked up): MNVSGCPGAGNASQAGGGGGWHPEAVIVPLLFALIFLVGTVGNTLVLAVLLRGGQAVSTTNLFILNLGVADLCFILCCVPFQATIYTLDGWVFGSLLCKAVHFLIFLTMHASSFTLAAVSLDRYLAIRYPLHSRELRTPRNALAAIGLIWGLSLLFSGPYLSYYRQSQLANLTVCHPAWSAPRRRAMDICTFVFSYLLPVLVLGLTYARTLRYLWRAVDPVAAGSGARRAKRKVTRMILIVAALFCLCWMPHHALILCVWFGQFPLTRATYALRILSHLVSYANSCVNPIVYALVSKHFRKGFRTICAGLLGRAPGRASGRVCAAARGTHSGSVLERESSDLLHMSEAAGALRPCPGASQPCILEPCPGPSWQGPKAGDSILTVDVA
# INS promoter inh = inhibitors of insulin promoter-driven GFP, primary screen, imaging, TRM-6 cells (human fetal islet line), eGFP reporter, cell count | reporter expression induced with tamoxifen | inhibition, % at 2 µM | hit rate 0.9% among 130,000;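 active = inhibition above the mean plus 3 SD, with well images judged a real hit on visual review, cut at about 60% in these data, passing the limit was not always enough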
# HSV replic up = enhancers of HSV replication in host cells, fold increase, host cell viability; maximum fold increase; AID 1956, 2009; hit rate 0.005% among 220,000; HSV replication augmentation in cells;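 active = peak rise of 1.5-fold or more in the series; tested in PC3 cells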;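 note: first round at 10 µM; read as green reporter fluorescence; hits show the peak of a series up to 25 µM; 1 = signal of infected wells without compound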
# RGS16-Gao = modulators of RGS16 binding to Galphao, primary screen, biochemical, human proteins, multiplexed bead flow cytometry. Regulator of G-protein signaling 16 (Homo sapiens) + Guanine nucleotide-binding protein …. bead-based flow cytometry RGS16-Galphao binding, fluorescence; actives lie on both sides. binding response (% of control), % at 10 µM. hit rate 0.38% among 220,000;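 active = below 25% or above 175%, edge rows of some plates excepted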;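 note: Galphao activated by GDP with aluminum fluoride before binding; 100% = wells without compound and 0% = beads without RGS; some results beyond the cut were filed as inactive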
# Target sequence (O15492 whole entry, looked up): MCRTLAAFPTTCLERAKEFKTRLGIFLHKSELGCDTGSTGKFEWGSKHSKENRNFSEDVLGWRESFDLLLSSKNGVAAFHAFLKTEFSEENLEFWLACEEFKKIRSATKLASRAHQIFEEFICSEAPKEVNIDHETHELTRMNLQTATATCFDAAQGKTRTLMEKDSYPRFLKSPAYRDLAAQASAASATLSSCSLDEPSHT
# Target sequence (P09471 whole entry, looked up): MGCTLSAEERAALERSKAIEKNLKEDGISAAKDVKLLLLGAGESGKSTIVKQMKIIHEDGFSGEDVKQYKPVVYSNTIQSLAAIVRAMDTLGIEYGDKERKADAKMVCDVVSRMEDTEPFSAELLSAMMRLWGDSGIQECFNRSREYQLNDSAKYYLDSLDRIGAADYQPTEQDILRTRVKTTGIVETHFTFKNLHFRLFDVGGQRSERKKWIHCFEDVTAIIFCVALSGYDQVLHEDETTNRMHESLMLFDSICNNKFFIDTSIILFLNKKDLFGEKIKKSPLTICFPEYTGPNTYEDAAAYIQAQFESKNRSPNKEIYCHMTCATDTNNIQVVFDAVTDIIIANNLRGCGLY
# PKD1 inh = inhibitors of human PKD1 kinase, biochemical, fluorescence polarization | PKD1 kinase fluorescence polarization assay | inhibition, %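 (about 10 µM by stock and volumes)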 | hit rate 0.056% among 200,000;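 active = inhibition of 50% or more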;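 note: controls were vehicle for no effect and a reference inhibitor for full effect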
# INS promoter inh cell count = also measured in INS promoter inh; calls as there; normalized cell count, %; measured here: cell count, toxicity; reference of the scale not given here;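 cells exposed to compound for 48 h; stained nuclei by imaging scaled within each plate; lower means fewer cells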
# HSV replic up primary fold = also measured in HSV replic up; calls as there; fold increase; compound at 10 µM; measured here: primary screen fold increase 10 uM; tested in PC3 cells;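 GFP signal in the first replicate; 1 = infected wells without compound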
# Active calls of the source: *; i = inactive; · = no result given. Hits appear at their usual frequency. About 1.3% of those tested had a hit in this group.
compound,HSV replic up,PKD1 inh,RGS16-Gao,INS promoter inh,GALR2 agonist,HSV replic up primary fold,INS promoter inh cell count
C=CCN1C(=O)/C(=C\c2ccc(Oc3nc(N4CCOCC4)nc(N4CCOCC4)n3)c(OC)c2)SC1=S,i,-2,97,50,·,1.1,84
C/C(N)=C(/C#N)C(=O)CSc1nc2ccccc2c(=O)n1CCCOC(C)C,i,-12,84,5,5.6*,1,73
O=C(NCC1CCCO1)c1cc(S(=O)(=O)Nc2ccc(Br)cc2)ccc1Cl (centres undefined),i,-1,105,·,·,0.95,·
O=C(OCC(=O)N1CCc2ccccc21)c1c2c(nc3ccccc13)CCCC2,i,-17,109,·,0.8,0.8,·
O=C(Nc1ccc(Nc2ccccc2)cc1)c1ccc(Br)o1,·,-13,87,6,-3.8,·,101
CCOc1cccc(C(=O)Nc2nnc(-c3cccs3)s2)c1,i,-6,99,-52,-0.8,0.9,79
COc1ccc(/C=N/NC(=O)CN2CCCc3ccccc32)c(OC)c1,i,·,94,·,·,0.87,·
Cc1ccc(SCc2cc(=O)[nH]c(SCC(=O)Nc3cc(Cl)ccc3Cl)n2)cc1,i,-5,108,·,·,0.99,·
CCC(C)NCCOCCOc1ccccc1-c1ccccc1 (centres undefined),i,14,95,-19,-3.0,0.89,153
CC1(C)CC2CC(C)(CN2C(=S)Nc2ccccc2F)C1 (centres undefined),i,-2,99,·,·,0.95,·

compound,HSV replic up,PKD1 inh,RGS16-Gao,INS promoter inh,GALR2 agonist,HSV replic up primary fold,INS promoter inh cell count
Cc1nnc(-c2cnn(C)c2N)n1Cc1ccccc1F,i,-3,108,-19,-4.4,1,116
CCn1c(SCc2ccccc2)nc2c(c1=O)SCC2,i,-2,101,·,·,0.76,·
Cc1ccccc1C(CC(=O)c1cccs1)C(C#N)C#N (centres undefined),i,-2,100,·,-0.2,0.81,·
CC(C)Cn1c(N)c(C(=O)COC(=O)c2cc(-c3ccccc3)nc3ccccc23)c(=O)n(C)c1=O,i,-5,98,-40,-0.8,0.85,114
Cc1cc2cc(CNC(=O)Nc3ccccc3)ccc2n1C,i,-1,101,-80,-1.7,0.82,113
C[C@@]12CCC=C[C@H]1[C@H](c1ccc3ccccc3c1Br)N(Cc1ccccc1)C2=O,i,·,107,·,·,0.8,·
CCOc1ccc(CNC(=O)CCn2c(=O)oc3ccccc32)cc1OC,i,-9,104,16,-2.9,0.88,82
CC(CN1CCN(C)CC1)OC(=O)c1ccccc1 (centres undefined),i,-1,99,-33,-3.0,1,284
CSc1nc(-c2ccccc2)nc(N2CCOCC2)c1C(C)=O,i,-1,115,-36,·,0.89,80
CC(C)C[C@H](NC(=O)OC(C)(C)C)c1nnc(SCC(=O)Nc2ccc(Br)cc2)o1,i,-13,101,-38,-4.0,0.82,111

compound,HSV replic up,PKD1 inh,RGS16-Gao,INS promoter inh,GALR2 agonist,HSV replic up primary fold,INS promoter inh cell count
S=C(c1ccc(Cl)cc1)N1CCN(Cc2ccccc2)CC1,i,-2,100,·,·,0.93,·
COCCn1cnnc1SCC(=O)Nc1cccc(S(=O)(=O)N(C)c2ccccc2)c1,i,-8,103,16,·,1,112
CC1=CC(=O)CC(C)(C)C1(O)/C=C/C(C)=C/C(=O)O (centres undefined),i,·,100,·,·,0.96,·
O=C(OCc1ccccc1F)c1ccc2c(c1)-c1ccccc1C2=O,i,-7,98,·,-1.2,0.94,·
O=C(/C=C/c1ccco1)N1CCN(c2ncccn2)CC1,i,-1,102,-30,0.6,1.1,96
CN(C)c1cc(Cl)c2nonc2c1N,i,·,103,·,·,0.9,·
COc1cccc(C(=O)NCC(=O)N/N=C/c2cn[nH]c2-c2ccccc2)c1,i,-3,111,17,·,1,111
COc1cc(Cn2c(=O)oc3ccc(C)cc32)ccc1OC(C)C,i,-6,103,-12,-1.5,0.92,126
O=C(O)CCCn1c(O)c(C=C2N=c3ccccc3=N2)sc1=S,i,·,99,·,·,0.91,·
O=C(Nc1cc2c3c(c1)C1CCCC1CN3CC1CCCC21)c1ccc([N+](=O)[O-])cc1 (centres undefined),i,-1,135,-3,-3.9,0.93,149

# Gathered by group: those above containing an NH in an aromatic ring (2)
compound,HSV replic up,PKD1 inh,RGS16-Gao,INS promoter inh,GALR2 agonist,HSV replic up primary fold,INS promoter inh cell count
Cc1ccc(SCc2cc(=O)[nH]c(SCC(=O)Nc3cc(Cl)ccc3Cl)n2)cc1,i,-5,108,·,·,0.99,·
COc1cccc(C(=O)NCC(=O)N/N=C/c2cn[nH]c2-c2ccccc2)c1,i,-3,111,17,·,1,111

# Next part.
compound,HSV replic up,PKD1 inh,RGS16-Gao,INS promoter inh,GALR2 agonist,HSV replic up primary fold,INS promoter inh cell count
CCN1C(=O)c2cccc3c(S(=O)(=O)Nc4ccccc4OC)ccc1c23,·,-7,101,-109,-1.4,·,70
COCCNC(=O)C(c1ccc(O)cc1)N(Cc1ccco1)C(=O)CCC(=O)Nc1nccs1 (centres undefined),i,-3,103,-14,-1.4,1.1,59
CC(C)CNC(=O)c1ccccc1NC(=O)/C=C/c1cccc([N+](=O)[O-])c1,i,-6,97,-19,-0.8,0.82,87
NC(=O)C1CCN(C(=O)C2c3ccccc3C(=O)N3CCc4ccccc4C23)CC1 (centres undefined),i,-13,97,·,-2.3,0.9,·
CC(C)(C)c1nnc(NC(=O)c2ccc(Cl)nc2)s1,i,5,101,·,·,1.2,·
COC1=C/C(=C/c2c(N)n3cc(C)sc3nc2=O)C=CC1=O,i,19,131,17,-1.0,1,107
COc1ccc(C2c3c(oc4ccc(Cl)cc4c3=O)C(=O)N2CCN2CCOCC2)cc1 (centres undefined),i,·,91,·,·,1,·
O=C(NC(=S)Nc1ccc(N2CCN(C(=O)c3ccccc3)CC2)cc1)c1cccs1,i,-8,105,·,·,0.8,·
O=C(Nc1ccc(NC(=O)c2ccccc2)nc1)c1ccncc1,i,2,109,·,·,0.84,·
COC/C=C/C1=CC2=CC(=O)C(C)(OC(=O)c3cnc4ccccc4n3)C(=O)C2=CN1c1ccccc1 (centres undefined),i,·,95,·,·,0.9,·

compound,HSV replic up,PKD1 inh,RGS16-Gao,INS promoter inh,GALR2 agonist,HSV replic up primary fold,INS promoter inh cell count
CCN1C(=O)C(CC(=O)Nc2ccc(Br)cc2)N(CCCc2ccccc2)C1=S (centres undefined),i,-4,86,23,-2.7,0.98,105
Cc1cc(O)cc(O)c1-c1onc(C(F)(F)F)c1-c1cscn1,i,-4,94,·,-1.2,0.98,·
COc1cccc(NC(=S)N(CCCN2CCOCC2)C(C)c2cc3cccc(OC)c3o2)c1 (centres undefined),i,-2,101,-259,·,1.1,72
COC(=O)c1cccc(NC(=O)CN2CCN(c3ccc(OC)cc3)CC2)c1,i,-11,101,·,-1.8,0.83,·
CN(c1ccccc1)S(=O)(=O)c1cc(C(=O)c2nccn2C)ccc1Cl,i,2,98,·,-0.7,0.97,·
COc1ccc(-c2nnc(SCc3c(C)noc3C)o2)cc1,i,-6,100,-35,·,0.99,141
C#CC1(NC(=O)NC(C)C)CCCCC1,i,-2,99,13,·,0.99,126
O=C(OCn1nnc2ccccc2c1=O)c1ccc(Br)o1,i,-2,97,-6,-1.5,0.74,135
CCc1ccc(NC(=S)Nc2cccc(OC)c2)cc1,i,-3,51,47,-2.6,0.71,60
Cc1cccc2cc(CN(Cc3ccco3)C(=O)NC3CCCCC3)c(=O)[nH]c12,i,-4,101,·,-2.3,0.87,·

compound,HSV replic up,PKD1 inh,RGS16-Gao,INS promoter inh,GALR2 agonist,HSV replic up primary fold,INS promoter inh cell count
O=C(CN(C1CCCCC1)S(=O)(=O)c1ccc(Cl)cc1)N1CCOCC1,i,3,110,-42,0.3,0.77,118
Cc1ccc(-c2nc3cc(NC(=O)C(C)C)ccc3o2)cc1C,i,-6,105,0,-0.5,0.68,104
Cc1ccn2c(Nc3ccc4c(c3)OCO4)c(-c3ccc(O)cc3)nc2c1,i,·,86,·,·,0.92,·
Nc1ccc(-c2ccc(N)c([N+](=O)[O-])c2)cc1[N+](=O)[O-],i,-6,98,-100,·,0.85,72
COCCCNC(=O)CCSc1ccc(C)cc1,i,9,89,38,-0.6,1.1,136
O=C(Nc1ccc2nccnc2c1)c1cnccn1,i,-1,102,16,0.1,0.96,97
Cc1ccc(C(NC(=O)C2CCCCC2)c2c(O)ccc3ccccc23)cc1 (centres undefined),i,13,103,·,-0.4,0.97,·
S=c1[nH]nc(COc2ccccc2)n1/N=C/c1cccnc1,i,4,103,-41,-0.4,1.1,96
O=C(CN(Cc1ccco1)C(=O)c1nsc(Cl)c1Cl)NC1CCCCC1,i,-3,108,·,·,0.93,·
CCN(CC)C(=O)c1sc(NC(=O)Cc2ccccc2)c(C#N)c1C,i,1,116,40,-0.4,0.89,76

# Some of the entries so far, field by field:
Cc1ccn2c(Nc3ccc4c(c3)OCO4)c(-c3ccc(O)cc3)nc2c1
  HSV replic up = i	PKD1 inh = ·	RGS16-Gao = 86	INS promoter inh = ·	GALR2 agonist = ·	HSV replic up primary fold = 0.92	INS promoter inh cell count = ·
Nc1ccc(-c2ccc(N)c([N+](=O)[O-])c2)cc1[N+](=O)[O-]
  HSV replic up = i	PKD1 inh = -6	RGS16-Gao = 98	INS promoter inh = -100	GALR2 agonist = ·	HSV replic up primary fold = 0.85	INS promoter inh cell count = 72
COCCCNC(=O)CCSc1ccc(C)cc1
  HSV replic up = i	PKD1 inh = 9	RGS16-Gao = 89	INS promoter inh = 38	GALR2 agonist = -0.6	HSV replic up primary fold = 1.1	INS promoter inh cell count = 136
O=C(Nc1ccc2nccnc2c1)c1cnccn1
  HSV replic up = i	PKD1 inh = -1	RGS16-Gao = 102	INS promoter inh = 16	GALR2 agonist = 0.1	HSV replic up primary fold = 0.96	INS promoter inh cell count = 97

# Carrying on.
compound,HSV replic up,PKD1 inh,RGS16-Gao,INS promoter inh,GALR2 agonist,HSV replic up primary fold,INS promoter inh cell count
COc1ccc(NC(=O)CCCn2c(=O)c3sccc3n(Cc3cccc(C)c3)c2=O)cc1,i,3,85,-44,-2.1,0.91,107
O=C(C(=O)N1CCc2ccccc2C1)c1cn(CC(=O)N2CCOCC2)c2ccccc12,i,-4,101,·,0.5,0.95,·
CC(C)COC(=O)C1C(=O)CC(C)(O)C(C(=O)OCC(C)C)C1c1cccnc1 (centres undefined),i,6,102,·,-1.7,0.92,·
CCc1nc(N)c(C#N)c(-c2cccc3ccccc23)c1C,·,-9,107,35,-1.2,·,95
Cc1ccc(C(C(=O)NC(C)(C)C)N(Cc2cccnc2)C(=O)C(=O)NC2CCCCC2)o1 (centres undefined),i,-6,116,-71,·,0.97,74
CCOc1cccc(SCc2noc(C(=O)NC(C)C)c2C(=O)O)c1,i,-11,108,-3,-2.8,0.97,204
Cc1nn(CC(=O)NCc2ccccc2)c(C)c1[N+](=O)[O-],i,1,101,-3,-2.1,0.92,107
O=C(NCCCNCc1ccccc1)c1ccc(/C=N/O)nc1,i,-9,101,·,-3.1,0.74,·
Cc1ccc(C(C)C)c(OCC(=O)Nc2ccccc2N2CCN(C)CC2)c1,i,0,100,-62,-2.7,0.72,129
Cc1occc1C(=O)Nc1ccc2c(c1)OCCO2,i,-2,104,-244,-1.1,0.76,41

compound,HSV replic up,PKD1 inh,RGS16-Gao,INS promoter inh,GALR2 agonist,HSV replic up primary fold,INS promoter inh cell count
NCCc1nnc(SCc2c(Cl)cccc2Cl)o1,i,·,102,·,·,0.98,·
Cc1ccccc1-c1c(C)oc2cc(O)ccc2c1=O,i,-10,97,·,-0.9,1.1,·
O=C(O)c1nc(N2CCOCC2)nc(N2CCOCC2)n1,i,-1,91,-31,-0.3,0.72,129
Cc1ccc(NC(=O)CC2S/C(=N/c3nccs3)N(C)C2=O)cc1C (centres undefined),i,-12,99,10,-2.5,0.94,61
Cc1ccc(OCC(=O)N2CCCC(CCC(=O)N(C)CCc3ccccn3)C2)cc1 (centres undefined),i,-5,116,-35,·,0.99,130
Cc1ccc(C)c(NC(=O)CNS(=O)(=O)c2ccccc2)c1,i,-3,100,·,-2.8,0.71,·
CNC(=O)C12CC3CC(CC(Cl)(C3)C1)C2,i,-6,98,26,-1.8,0.9,107
COc1cccc(/C=N/NC(=O)C(=O)NCc2ccco2)c1O,i,10,120,18,-1.3,0.95,138
CC(Sc1cccc[n+]1[O-])C(=O)Nc1ccc([N+](=O)[O-])cc1Cl (centres undefined),i,-2,100,·,·,0.87,·
